# D2 PAM = positive allosteric modulators of human D2 dopamine receptor; P14416; DiscoveRx D2 beta-arrestin cells, luminescence, 90 min; 100% = 57 uM dopamine signal; potentiation, % (test concentration not listed); actives 0.23% (n = 360,000); AID 624464; active = potentiation of 50% or more; inconclusive = 30% to 50%; inactive = 30% or less;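 also: compound concentration not given in the record; tested on top of an EC20 dose of dopamine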
#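 PathHunter D2 cells, attached overnight at 37 deg C, received compound in DMSO plus dopamine at EC20 (50 nM final) for 90 min at 37 deg C. Beta-arrestin recruitment was read as luminescence after 1 h with detection reagent at ambient temperature.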
# D2 agonist = activates the human D2 dopamine receptor; P14416; AID 624465; DiscoveRx PathHunter D2 beta-arrestin, luminescence, 90 min; 100% = 57 uM dopamine signal; actives 0.084% (n = 360,000); activation, % (test concentration not listed); in the data active = activation above about 40%; inconclusive = about 15% to 40%; inactive = below about 15%; also: compound concentration not given in the record; the text of the record calls up to 30% inactive
#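 DiscoveRx PathHunter D2 beta-arrestin cells (2,100/well) attached overnight, then compound-stimulated 90 min at 37 C in HBSS/10 mM HEPES/0.1% Tween-20 buffer; beta-galactosidase complementation read by luminescence after 1 h at ambient temperature. Dopamine 57 uM final (EC100) as control.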
# TRPML1 inh = human mucolipin-1 channel inhibition; activity change, negative = inhibition, % (concentration not given with the values); Q9GZU1; actives 0.02% (n = 390,000); TRPML1-inducible cells, Ca2+ dye fluorescence, FDSS; active compounds read low; inhibition of EC80 agonist-evoked calcium signal; in the data active means activity change below about -50%; inconclusive means about -30% to -50%; inactive means above about -30%;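 also: stimulus is agonist 54-4 at its EC80 concentration; % is scaled to controls: 0 for no effect and ±100 for the full control effect; the text of the record puts the active cut at -80%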
#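 Tet-induced TRPML1-DL cells loaded with Ca8 no-wash calcium dye were read kinetically on FDSS. Compound addition was followed by EC80 agonist 54-4 (4 uM final); inhibition was read over 110 s.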
# Six1-Eya2 inh = inhibitors of human Six1/Eya2 interaction. Q15475+O00167. activity change, % (no concentration beside the values). AID 651725. actives 0.56% (n = 360,000). AlphaScreen GST-Six1/His-Eya2 binding, biochemical; active compounds read low; control for the full effect not named in the record; in the data active = activity change below about -65%; inconclusive = about -30% to -65%; inactive = above about -30%; also: % is scaled to controls: 0 for no effect and ±100 for the full control effect
# Target sequence (O00167 whole entry, looked up): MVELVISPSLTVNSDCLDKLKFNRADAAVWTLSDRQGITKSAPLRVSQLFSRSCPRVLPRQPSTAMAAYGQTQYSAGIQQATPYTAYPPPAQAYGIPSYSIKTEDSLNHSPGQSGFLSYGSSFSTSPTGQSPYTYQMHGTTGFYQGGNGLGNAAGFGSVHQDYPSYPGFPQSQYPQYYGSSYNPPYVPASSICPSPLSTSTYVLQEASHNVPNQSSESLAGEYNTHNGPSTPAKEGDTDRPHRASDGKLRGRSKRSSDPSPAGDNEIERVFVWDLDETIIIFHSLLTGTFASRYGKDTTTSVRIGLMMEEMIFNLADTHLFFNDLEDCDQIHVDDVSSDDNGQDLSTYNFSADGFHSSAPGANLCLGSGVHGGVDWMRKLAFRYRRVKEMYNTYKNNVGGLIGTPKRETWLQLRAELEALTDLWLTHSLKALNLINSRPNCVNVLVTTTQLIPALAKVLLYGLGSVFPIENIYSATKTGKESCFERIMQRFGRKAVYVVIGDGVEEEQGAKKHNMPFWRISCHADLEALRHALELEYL
# Target sequence (Q15475 whole entry, looked up): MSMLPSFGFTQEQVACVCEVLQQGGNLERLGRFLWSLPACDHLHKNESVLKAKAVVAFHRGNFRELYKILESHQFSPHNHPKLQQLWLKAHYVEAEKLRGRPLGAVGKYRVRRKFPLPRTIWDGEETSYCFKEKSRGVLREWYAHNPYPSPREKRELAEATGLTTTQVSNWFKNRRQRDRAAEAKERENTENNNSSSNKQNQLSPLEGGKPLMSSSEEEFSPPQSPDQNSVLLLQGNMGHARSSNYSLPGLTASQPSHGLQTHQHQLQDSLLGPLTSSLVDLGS
#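 AlphaScreen luminescence read after one hour at 37 °C in darkness. Pin-transferred compounds met GST-Six1 and His-Eya2 protein (5X stock 250 nM/500 nM) plus glutathione donor and Ni-chelate acceptor beads (5X, 50 ug/mL).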
# PINK1 modulator = modulators of PINK1 expression; Potency, µM (doses to about 76.6 µM), for inactives: top-dose activation (PINK1 increase), most hits filed as activators; PINK1 immunofluorescence, high-content cytometry, 24 h; actives 0.2% (n = 410,000); active = well fitted activation curve with a large enough effect; inconclusive = small, poorly fitted or top-dose-only effect; inactive = flat fitted curve, though single readings scatter; cell line not stated here;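 also: potency is read from the fitted curve at half-maximal effect; % of control where 0% means no effect; nearly all actives have a fitted effect of over 65% in size; a mitochondrial uncoupler was the plate control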
#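 Measures PINK1 amount and localization on or inside mitochondria by immunofluorescence. Stable cells get compounds at 5 concentrations for 24 hours before fixation and staining; CCCP controls included.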
# TRPML1 ag = human mucolipin-1 channel agonism; Q9GZU1; TRPML1-expressing cells, Ca2+ dye fluorescence, FDSS; host cell line not named in the record; reference of the full effect not given here; activation, % (concentration not given with the values); actives 0.12% (n = 410,000); AID 624414; in the data active = activation above about 50%; inconclusive = about 30% to 50%; inactive = below about 30%; also: 0% is about no effect; the text of the record puts the active cut at 80%
#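 TRPML1-DL cells, Tet-induced overnight (~16 h, 37 degrees C), loaded 45-90 min at room temperature with Ca8 no-wash calcium dye plus quencher. FDSS fluorescence: 10 s baseline, compound pin-transfer, 110 s agonist read, then EC80 54-4 (4uM final) and 110 s antagonist read.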
# Active calls of the source: *; ? = inconclusive; . = not tested or not shown; & = joins results of further samples; [ ] = another dose, or the depositor's remark. Compounds as they come; any-hit rate near 1%.
# Below each SMILES – D2 PAM	D2 agonist	TRPML1 inh	Six1-Eya2 inh	PINK1 modulator	TRPML1 ag
> CN1CCN(CCCNC(=O)CCCOc2cc(=O)n(C)c3ccccc23)CC1
→ 1	-0.8	3	-2	2.2%	-1.4
> N#CC1(NC(=O)COC(=O)CCN=C2NS(=O)(=O)c3ccccc32)CCCCC1
→ -7	-4.4	7	-4	-1.5%	2.3
> O=C(c1cc(COc2ccc(F)cc2Cl)on1)N1C[C@H]2CC[C@H]1C2
→ -9	3.0	9	18	1.9%	1.7
> COCCCn1c(=O)c2ccccc2n(Cc2cc(C(=O)OC)ccc2OC)c1=O
→ -3	2.0	1	0	0.5%	1.6
> O=C(CN1CCCCC1)NN(Cc1ccccc1)c1ccccc1
→ -14	-1.9	-6	12	-1.1%	0.1
> C[C@@H]1CN([C@@H](C)CO)C(=O)CCCn2nncc2CO[C@H]1CN(C)S(=O)(=O)c1ccc(Cl)cc1
→ 2	1.9	-23	21	2.4%	-0.3
> CC(C)N(CCCNC(=O)c1ccc(N2CCCC2=O)cc1)Cc1ccccc1
→ -15	-7.2	-16	5	3.0%	0.0
> COc1ccc(CCNC(=O)Cn2c(-c3nonc3N)nc3ccccc32)cc1OC
→ 24	-1.0	-6	-6	-0.2%	0.1
> CCN(CC(=O)Nc1cccc(S(N)(=O)=O)c1)Cc1nc2ccccc2c(=O)[nH]1
→ -15	-5.8	.	-7	0.4%	.
> CCC(=O)N1CCc2cc(S(=O)(=O)N3CCCC3)ccc21
→ -3	-1.4	19	0	0.3%	3.5
> O=C(Cc1c(F)cccc1Cl)Nc1cc(S(=O)(=O)N2CCCCC2)ccc1N1CCOCC1
→ -3	2.7	21	1	1.0%	2.9
> CCN1C(=O)c2ccc(C(=O)Nc3ccc4c(c3)OCO4)cc2C1=O
→ 3	-0.3	9	-1	1.8%	-0.4
> CC1=CCCC(C)(C)C1/C=C/C(C)=N/NC(=O)c1ccncc1 (configuration not stated)
→ -6	0.0	0	5	4.0%	0.0
> Oc1ccc(-c2csc(Nc3ccccn3)n2)cc1
→ 2	-1.5	-9	-6	2.1%	1.2
> CCOc1ccccc1CNC(=O)c1nn(C)c2c1CS(=O)(=O)c1ccccc1-2
→ -8	-4.9	19&4	-3	-0.5%&-0.7%	-0.2&2.5
> O=C(O)/C=C/C(=O)Nc1ccc(Oc2ccccc2)cc1
→ -2	-3.1	4	1	0.3%	-0.2
> CCN(CC)c1ccc(NS(=O)(=O)c2cc3[nH]c(=O)c(=O)[nH]c3cc2C)c(C)c1
→ .	.	17	.	7.6%	4.3
> Cn1c(-c2ccc(Br)o2)nc2ccccc21
→ -4	-3.7	-3	2	-2.0%&0.1%	2.5&-0.9
> O=C(NCC1CCCCC1)c1cc2ccccc2cc1O
→ -19	-2.4	0	-2	?	-0.2
> O=C(NCC1(c2ccccc2)CCOCC1)c1ccc(Br)o1
→ 27	0.9	3	-1	-1.5%	-0.3
> Cc1nn(-c2ccccc2)c(Cl)c1/C=C(\CC(=O)O)c1nc2ccccc2s1
→ -7	-2.8	2	-7	1.4%	-0.4
> CCn1c(=S)[nH]c2cc(S(=O)(=O)N3CCOCC3)ccc21
→ -27	-3.2	-10	-1	0.8%	0.9
> COCCC(=O)N1CCC(Oc2ccc(C(=O)N3CCC[C@H]3CO)cc2)CC1
→ -15	-2.8	-1	2	-0.5%	12
> O=C(Cc1ccc(Cl)cc1)c1c[nH]c(C(=O)NCCCN2CCOCC2)c1
→ -9	-1.7	5	-3	-0.2%	-0.1
> CCc1c(C)nc2nncn2c1NCc1ccc(OC)cc1
→ .	.	9	.	0.5%	1.3
> CS(=O)(=O)N(Cc1ccccc1)c1ccccc1C(=O)O
→ -19	-4.0	-9	14	0.7%	-0.8
> CCc1ccc(-n2c(CSc3nnnn3-c3ccccc3)nc3ccccc3c2=O)cc1
→ 0	-0.7	-20	-9	5.3%	-0.5
> CCN(C(=O)CN(C)S(=O)(=O)c1ccc2c(c1)c(=O)n(C)c(=O)n2C)c1ccc(OC)cc1
→ .	.	9	.	0.1%	0.0
> CCOC(=O)Nc1ccc(S(=O)(=O)Nc2cc(C)nc(C)n2)cc1
→ 2	0.6	17	3	2.1%	-0.7
> CCc1cccc(C)c1NC(=O)CN1C(=O)NC(C)(CCC(C)C)C1=O (configuration not stated)
→ 3	-2.6	19	9	-1.0%	0.6
> Cn1cc(S(=O)(=O)N2CCCC2)cc1C(=O)O
→ 2	-2.1	17	-8	-1.0%	-0.9
> COc1ccc(S(=O)(=O)N2CCOCC2)cc1C(=O)NC1CCCCC1
→ -9	-0.2	5	4	3.1%	-0.4
> CC[C@]12C(=O)N(C)C[C@H]([C@@H]3C(=O)N(Cc4ccccc4)C(=O)[C@@H]31)N2C(=O)c1ccc(Br)cc1
→ 3	-0.8	-9	0	0.4%	1.3
> CN(Cc1ccccc1NCC(=O)Nc1ccccc1C#N)C1CCCCC1
→ -3	-1.8	-2	-9	4.6%	-0.3
> O=c1cc(-c2ccccc2)oc2cc(OCc3ccccc3)cc(O)c12
→ -8	1.8	16	7	15%	-0.1
> O=C(NCCc1ccccc1F)C1CCC(=O)N(Cc2ccc(Cl)cc2)C1 (configuration not stated)
→ -5	-1.6	0	7	-0.6%	-0.2
> COc1ccc(C(=O)CSC(=S)N2CCCCC2)cc1
→ 5	-2.8	.	13	0.7%	-0.5
> O=C(/C=C/c1ccccc1)NC(=S)NNC(=O)c1cccnc1
→ -13	-2.9	29	-21	-0.4%	-0.4
> Cc1nc(NCCc2ccc(Cl)cc2)c2nnn(Cc3ccccc3)c2n1
→ 8	-3.6	.	-2	-0.4%	.
> CC(C)c1ccc(N(C(=O)c2csnn2)C(C(=O)NC2CCCC2)c2ccncc2)cc1 (configuration not stated)
→ -9	-0.9	14	-2	1.8%	0.1

# Some of the entries above, reformatted:
SMILES,D2 PAM,D2 agonist,TRPML1 inh,Six1-Eya2 inh,PINK1 modulator,TRPML1 ag
CCOC(=O)Nc1ccc(S(=O)(=O)Nc2cc(C)nc(C)n2)cc1,2,0.6,17,3,2.1%,-0.7
CCc1cccc(C)c1NC(=O)CN1C(=O)NC(C)(CCC(C)C)C1=O (configuration not stated),3,-2.6,19,9,-1.0%,0.6
Cn1cc(S(=O)(=O)N2CCCC2)cc1C(=O)O,2,-2.1,17,-8,-1.0%,-0.9
COc1ccc(S(=O)(=O)N2CCOCC2)cc1C(=O)NC1CCCCC1,-9,-0.2,5,4,3.1%,-0.4
CC[C@]12C(=O)N(C)C[C@H]([C@@H]3C(=O)N(Cc4ccccc4)C(=O)[C@@H]31)N2C(=O)c1ccc(Br)cc1,3,-0.8,-9,0,0.4%,1.3
CN(Cc1ccccc1NCC(=O)Nc1ccccc1C#N)C1CCCCC1,-3,-1.8,-2,-9,4.6%,-0.3

# (next part)
# Below each SMILES – D2 PAM	D2 agonist	TRPML1 inh	Six1-Eya2 inh	PINK1 modulator	TRPML1 ag
> CCC(=O)Nc1nnc(-c2ccccn2)o1
→ -11	1.6	26	-29	-0.1%	0.5
> CN(C(=O)CN1C(=O)S/C(=C\c2cccc(Cl)c2)C1=O)C1CCS(=O)(=O)C1 (configuration not stated)
→ -6	1.4	0	6	-0.5%	0.5
> CN1OC[C@@H]2CN3C(=O)N(c4cccc5ccccc45)c4ccccc4[C@@H]3C[C@@H]21
→ 3	5.6	.	3	0.7%	-0.1
> COc1cccc(C(=O)N2CCN(Cc3nc(-c4ccoc4)oc3C)CC2)c1
→ -18	-0.1	-9	44	2.4%	-0.1
> COc1ccc(-c2csc3ncnc(Cl)c23)cc1
→ -17	2.6	20	1	-0.5%	-0.6
> Cc1ccc(-c2c(C#N)c(N)nc3c2CCCCC3)o1
→ -5	-1.7	12	-1	-0.2%[38.3 µM]	4.1
> CCOCCCNC(=O)c1cn(CC)c2ccc(S(=O)(=O)N3CCc4ccccc4C3)cc2c1=O
→ .	.	13	.	-0.8%	-0.9
> CCOc1ccc2nc(NC3=NC(C)(C)C=C(C)N3)nc(C)c2c1
→ -27	-3.7	65	-7	6.0%	2.3
> N=C1C(c2ccccc2)=C(O)C2CCc3ccccc3N12 (configuration not stated)
→ 2	-1.3	2	-1	3.7%[38.3 µM]	-0.3
> Cc1ccc(-c2[nH]c3c(c2-c2c(-n4cccc4)n(C)c(=O)[nH]c2=O)c(=O)[nH]c(=O)n3C)cc1
→ .	.	-13	.	1.2%	0.4
> COc1cc(CC(=O)N2CCc3ccccc32)cc(OC)c1OC
→ -14	-3.4	-14	2	-2.6%	0.8
> Cc1cc(Cl)ccc1OC(C)C(=O)NCCCCc1ccccc1 (configuration not stated)
→ 1	-0.7	8	20	-0.3%[38.3 µM]	3.6
> O=C(c1cccs1)n1nc(-c2ccc(Cl)cc2)nc1NCc1ccco1
→ -8	-3.5	2	-3	.	-0.2
> CC(c1ccccc1)n1c(CCCO)nc2ccccc21 (configuration not stated)
→ -3	-4.3	18	1	1.5%	1.4
> COc1ccc(CNC(=O)COC(=O)c2cccs2)cc1
→ -4	-1.3	-3	6	0.8%	0.3
> CC(C)C[C@H]1CN([C@@H](CC(C)C)CN2CCC[C@H]2CN2C(=O)C(=O)NC[C@@H]2Cc2ccc(O)cc2)C(=O)C(=O)N1CC1CCCCC1
→ .	.	.	-3	1.5%	-0.3
> CCOC(=O)c1c(C)[nH]c(C)c1C(=O)COC(=O)[C@@H](NC(=O)c1ccco1)C(C)C
→ -9	-2.6	8	-6	-1.4%	-0.7
> CCOc1cc(-c2nnc(SCC(=O)NCc3ccccc3)nc2-c2ccc(OC)c(OCC)c2)ccc1OC
→ .	.	0	.	13%	2.4
> O=C(NC1CC(=O)N(c2ccc(F)cc2)C1)c1cccs1 (configuration not stated)
→ .	.	24	.	0.3%	-0.2
> CCNC(=O)c1ccc(C)c(-n2c(C)nc3cccnc32)c1
→ .	.	-2	.	-0.5%	1.1
> O=C(NC(=S)N1CCCCCC1)c1ccccc1Cl
→ 1	-18	34	5	1.0%	0.1
> CNC(=O)CN(C)S(=O)(=O)c1ccc(OC)c(Cl)c1
→ 0	-0.1	-3	11	-0.7%	0.9
> COc1cc2[nH]c(=O)n(CCC(=O)NCc3cccnc3)c(=O)c2cc1OC
→ -2	1.0	-1	13	1.4%	0.0
> CCOC(=O)C1CCCN(CCC(=O)Nc2ccc(OC)cc2OC)C1 (configuration not stated)
→ .	.	18	.	0.3%	0.5
> Cc1c(C#N)c(N=CN(C)C)c(C(=O)c2ccc(Br)cc2)n1-c1ccc(Cl)cc1
→ -7	-1.0	-10	-14	7.2%[38.3 µM]	2.1
> Cc1ccc(N2C(N)=C(C#N)C(c3cccnc3)C3=C2CC(C)(C)CC3=O)cc1 (configuration not stated)
→ -11	-1.6	-3	0	8.8%	0.4
> CCOC(=O)N1CCN(c2ccc(O)cc2)CC1
→ 7	4.2	5	-2	-1.1%	-0.4
> COc1ccccc1N1CCN(CC(O)COc2ccc(C)cc2C)CC1 (configuration not stated)
→ -25	-0.6	7	-9	9.9%	0.3
> CCCCCCCCCCCCCCCC(=O)OCC1OC(n2ccc(N)nc2=O)C(O)C1O (configuration not stated)
→ 8	0.6	12	6	3.8%	0.4

# Screening results from PubChem BioAssay.
